Compound activity deposited in PubChem BioAssay by PCMD.
Calb biofilm kill – clotrimazole potentiators killing C. albicans biofilm, primary screen, 4-compound mixtures. C. albicans biofilm persisters + clotrimazole, fluorescence viability; primary screen in compound mixtures of four per well. inhibition, % at 7.6 µM. 120,000 tested, 0.02% active;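 active means inhibition above 30.3% in the primary screen of four-compound pools, then above 30% when the compound was retested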;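 further: compounds exposed to preformed 24 h biofilms for 48 h; the number belongs to the whole pool; some results filed as inactive read as strong as hits; inactives centre near 12; 0% = biofilm with clotrimazole alone and 100% = kill control; retested singly at about 60 µM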
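Assay system: C. albicans biofilms / Medium: RPMI/MOPS medium, pH 7.0 / Schedule: biofilm formation 24 h, compound exposure 48 h, 37 °C / Measured by: Alamar Blue fluorescence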
Numbers without * were called inactive. Not all compounds are listed; rates above refer to the full screens.

SMILES	Calb biofilm kill
Cc1cccc(NC(=O)CSc2nc3[nH]ncc3c(=O)n2-c2ccccc2)c1	16.1
COCCSc1nnc(NC(=O)Cc2ccc(OC)cc2)s1	6.2
O=C(CSc1nnc(NC(=O)c2ccco2)s1)Nc1ccccc1	13.4
COc1ccc(-c2nc3cccc(C)n3c2NCC2CCCO2)cc1O (configuration not stated)	21.2
CCCN(CC(=O)Nc1ccccc1Br)CC(=O)Nc1ccc(F)c(F)c1F	10.4
CC(=O)N/C(=C\c1ccc(C)cc1)C(=O)O	20.2
O=C(NCc1ccccn1)C(=O)N/N=C/c1ccccc1O	18.8
COCCOC(=O)c1c(NC(=O)CNCc2ccco2)sc(C(N)=O)c1C	19.6
COc1ccc(/C=C(\CC(=O)O)c2nc3ccccc3s2)cc1O	3.5
Nc1ncc([N+](=O)[O-])cc1Br	20.0
CC(=O)NC1=NN(C(C)=O)C(C)(CC(=O)OC(C)(C)C)S1 (configuration not stated)	11.1
S=C(NCC1CCCO1)Nc1cccc2ccccc12 (configuration not stated)	10.3
Cc1ccc(-n2nc3c(c2NC(=O)/C=C\c2ccc4c(c2)OCO4)CSC3)cc1	14.4
COc1cc(-c2nc(-c3ccccn3)no2)cc(OC)c1OC	16.8
O=C(Nc1ncccn1)c1ccc([N+](=O)[O-])o1	8.7
CCCCC(=NCCc1c(C)[nH]c2ccccc12)C1=C(O)CC(c2ccccc2)CC1=O (configuration not stated)	19.5
COc1ccc(NC(=O)C2=C(C)Nc3nc(CCCO)nn3C2c2ccc(OC)c(OC)c2)cc1 (configuration not stated)	-1.8
Cc1cccc(NC(=S)NNC(=O)COc2ccc(Cl)cc2Cl)c1	11.4
COC(=O)[C@H]1C[C@@H]1[C@H](NC(=O)[C@H]1C[C@@H]1[C@H](NC(=O)OCc1ccccc1)c1ccccc1)c1ccccc1	16.3
CCN(CC)C(=O)CSc1nc(OC)cc(=O)[nH]1	18.2
O=C(CCCOc1ccc(Cl)cc1Cl)NCc1ccccn1	19.7
CCn1c(SCC(=O)N=Nc2c(O)[nH]c3ccccc23)nnc1-c1ccc(C(C)(C)C)cc1	13.1
COc1ccc(S(=O)(=O)Oc2ccc3ccccc3c2)cc1	6.5
CC(C)NC(=O)CCCn1cc([N+](=O)[O-])cn1	17.8
O=C(NC(=S)Nc1cccc(O)c1)c1ccco1	13.2
COc1ccc(NC(=O)CSc2nncs2)cc1S(N)(=O)=O	16.2
CN(C)c1ccc(C(=O)/C=C/c2ccccc2)cc1	14.7
O=C(CN(c1ccccc1F)S(=O)(=O)c1ccccc1)Nc1ccccc1C(=O)N1CCOCC1	13.6
COc1ccc(OC)c(CN2CCC(C(=O)N(C)CCc3ccc(OC)c(OC)c3)CC2)c1	8.6
COc1cccc(C2CC(c3cccs3)=NN2S(C)(=O)=O)c1OC (configuration not stated)	21.4
COc1ccc(Cn2cccc(NC(=O)Nc3cccc(OC)c3)c2=O)cc1	19.6
N/C(=N\OC(=O)COc1ccc2ccccc2c1)c1cccnc1	6.9
COc1cccc(C(=O)/C=C/Nc2ccc(S(=O)(=O)Nc3onc(C)c3C)cc2)c1	16.6
CCc1nnc(NC(=O)c2nn(-c3ccccc3)nc2C)s1	9.6
O=c1c2oc3ccccc3c2ncn1Cc1cccc(Cl)c1	3.4
COc1ccc(NC(=O)Cn2c(=O)n(-c3ccccc3)c(=O)c3sccc32)c(OC)c1	20.3
COc1cc(OC)c(NS(=O)(=O)c2ccc(Cl)c(C(=O)OC(C)C(=O)N3CCCC3)c2)cc1Cl (configuration not stated)	20.5
CCCCCCCc1nc2sc3c(c2c(=O)n1N)CC(C)(C)OC3	11.9
Cc1ccc(CC2CC(=O)N(c3nc(C)cc(C)n3)C2=O)cc1 (configuration not stated)	8.1
CCOC(=O)C(=O)Nc1cc(C)on1	10.2

Reprinted from the part before: three compounds, then new ones.
SMILES	Calb biofilm kill
CCCCCCCc1nc2sc3c(c2c(=O)n1N)CC(C)(C)OC3	11.9
Cc1ccc(CC2CC(=O)N(c3nc(C)cc(C)n3)C2=O)cc1 (configuration not stated)	8.1
CCOC(=O)C(=O)Nc1cc(C)on1	10.2
COc1ccc(CC2(CO)CCN(Cc3cnn(C)c3C)CC2)cc1	0.9
O=C(Cc1ccc(Cl)cc1)c1c[nH]c(C(=O)NCCCN2CCOCC2)c1	15.4
O=C(Nn1c(-c2ccc(F)cc2)nc2ccccc2c1=O)c1cccnc1	17.0
CC(C)c1ccc(CN(C)CC(O)c2ccccc2)cc1 (configuration not stated)	10.4
CCn1cc(/C=C(\NC(=O)c2ccc(OC)c(OC)c2)C(=O)NCCCO)c2ccccc21	4.8
COc1cc(C(=O)NCc2ccncc2)cc(OC)c1OC	22.4
CC(C)Sc1nc2c([nH]c3ccccc32)c(=O)n1C	14.9
CC(C)(CC(=O)O)CC(=O)Nc1ccc(Cl)c(Cl)c1	9.0
CCN(CC)c1ccc2cc(C(N)=O)c(=N)oc2c1	17.9
Cc1ccc(S(=O)(=O)CCC#N)cc1	1.6
Cc1ccsc1/C=N/NC(=O)c1ccc2c(c1)OCCO2	7.5
CC1(C)C(C=C(Cl)Cl)C1C(=O)N(Cc1ccccc1Cl)C1CCS(=O)(=O)C1 (configuration not stated)	9.9
CN1CCN(Cc2nc3ccccc3c(=O)n2Cc2nc(-c3ccc4ccccc4c3)cs2)CC1	13.5
COc1ccccc1NC(=O)c1cc2c(=O)n(C)c3ccccc3c2n1C	11.6
Cc1nc2cc3sc(C)nc3cc2s1	26.9
N#CC1=C(N)Oc2n[nH]c(-c3cccs3)c2C1c1ccncc1 (configuration not stated)	13.3
Cc1ccc(CNC(=O)C(Cc2ccccc2)n2cccc2)cc1 (configuration not stated)	18.8
Nc1nc(-c2ccccc2)[nH]c(=O)c1N	14.1
CC(NC(=O)c1ccc(Cl)cc1Cl)C(c1ccccc1)N1CCOCC1 (configuration not stated)	11.7
O=C(Cn1nnc2ccccc21)OCC(=O)c1ccccc1	17.6
COc1cccc(/C=N\NC(=O)c2ccc(Cn3cc(Br)c([N+](=O)[O-])n3)o2)c1O	22.9
CCOC(=O)c1ccc(COC(=O)CNS(=O)(=O)c2ccccc2)cc1	3.7
Cc1ccc(S(=O)(=O)CCN2C=CC(C(F)(F)F)=NCC2)cc1	6.2
O=C(CCN1CCN(C/C=C/c2ccccc2)CC1)Nc1ccccc1F	2.9
Oc1cc(OCc2ccccc2)ccc1-c1[nH]ncc1-c1ccccc1	20.1
CCOC(=O)C1=C(CSc2nc(CC)c(C)cc2C#N)OC(N)=C(C#N)C1c1ccc(OC)cc1 (configuration not stated)	8.5
COCCCN=Cc1c(C)[nH]n(-c2ccc(Br)cc2Br)c1=O	2.3
Clc1cccc(Cl)c1C1=NOC(c2nnc(-c3ccccc3)o2)C1 (configuration not stated)	19.2
O=C(O)c1cc(N=Nc2c(O)ccc3ccccc23)cc(C(=O)O)c1	-5.2
COc1ccc(NC(=O)NC(C)C2CC3CCC2C3)cc1 (configuration not stated)	0.0
CC/C(Cc1ccccc1)=N\NC(=O)c1cc(C)oc1C	19.3
CCCOc1ccc(/C=C/C(=O)NCc2ccccc2)cc1	15.9
Cc1ccc(OC(C)C(=O)Nc2ccc(C)c(S(=O)(=O)Nc3ccc(C)cc3C)c2)cc1 (configuration not stated)	6.3
N/C(=N\OC(=O)CCCCCN1C(=O)c2ccccc2C1=O)c1ccccn1	8.4
O=C(COC(=O)c1cc(-c2cccs2)nn1-c1ccccc1)Nc1ccc(Cl)c([N+](=O)[O-])c1	9.6
Cc1ccc(C)c2nc(SCC(=O)Nc3ccc4c(c3)OCO4)c(C#N)cc12	19.0
O=S(=O)(/C(=C/c1ccc(C(F)(F)F)cc1)c1nc2ccccc2[nH]1)c1ccccc1	7.1
O=C(O)CC/C(=N/Nc1ncc(C(F)(F)F)cc1Cl)C(=O)O	11.8
COc1ccc(-c2csc(NC(=O)C3COc4ccccc4O3)n2)cc1OC (configuration not stated)	1.4
O=C(NC(=S)N1CCCCCC1)c1ccccc1Cl	4.7
CCn1cc(C2C(C(=O)Nc3cc(C)ccn3)=C(C)NC3=C2C(=O)CC(C)(C)C3)c(C)n1 (configuration not stated)	7.8
N#CC1(C#N)[C@@H](C(=O)C23CC4CC(CC(C4)C2)C3)C12CCOCC2	14.2
O=C(/C=C/c1ccc(F)cc1)c1ccccc1Br	18.3
O=S(=O)(Nc1ccc(-c2cnco2)cc1)c1ccccc1	20.4
CC(=O)NCC1COc2ccccc2O1 (configuration not stated)	21.5
COc1ccc(/C(N)=N/OC(=O)Cc2ccccc2)cc1	5.7
CCO[C@H]1OC(C(=O)NCc2ccccc2)=C[C@@H](C2CC2)[C@@H]1CCCO	16.5
Cn1cc(/C=N/Nc2ccccc2)c2ccccc21	10.7
CC(=O)Nc1ccccc1OCc1nnc(-c2ccc(Cl)cc2)o1	10.8
O=C(CNc1ccc2ccccc2c1)N/N=C/c1ccc(C(=O)O)cc1	22.3
CCCCN(CCCC)C(=O)C1CC=CCC1C(=O)O (configuration not stated)	19.7
CCOc1ccc(NC(=O)CSc2n[nH]c(N)n2)c([N+](=O)[O-])c1	7.8
CN(C)/C=N/C(=S)Nc1ccccc1Cl	1.3
Cn1c(SCc2nnc(-c3ccccc3)o2)nc2ccccc21	10.5
C#CCOCCOCCOCCNc1nc(N2CCN(C(=O)[C@H](CCCCN)n3cc([C@@H](N)CC(C)C)nn3)CC2)nc(N2CCN(C(=O)[C@H](Cc3cc4ccccc4[nH]3)n3cc([C@@H](N)Cc4ccc(O)cc4)nn3)CC2)n1	7.5
COc1cc(C=O)ccc1OCC(=O)N1CCCC1	11.1
Cc1ccccc1C(=O)Nc1ccc(N2CCN(C)CC2)nc1	2.7
O=C(CSc1nnnn1-c1ccccc1)c1ccc(O)cc1O	18.7
CN(CCOc1ccccc1)CC(=O)Nc1ccc(Cl)cc1[N+](=O)[O-]	12.1
COc1ccc(-n2c(O)c(C=NCc3ccccn3)c3ccccc3c2=O)c(OC)c1	24.3

Random excerpt: 3 entries already listed.
SMILES	Calb biofilm kill
CCn1cc(C2C(C(=O)Nc3cc(C)ccn3)=C(C)NC3=C2C(=O)CC(C)(C)C3)c(C)n1 (configuration not stated)	7.8
O=C(CNc1ccc2ccccc2c1)N/N=C/c1ccc(C(=O)O)cc1	22.3
O=C(CSc1nnnn1-c1ccccc1)c1ccc(O)cc1O	18.7

(cont.)
SMILES	Calb biofilm kill
O=C(COc1ccccc1)Nc1ccccc1Oc1ccccc1	16.2
Cc1ccsc1/C=N/n1c(-c2ccncc2)n[nH]c1=S	18.5
Cc1onc(-c2ccccc2)c1C(=O)N[C@@H]1C(=O)N2[C@@H]1SC(C)(C)[C@@H]2C(=O)O	18.0
CCCCCCCCCC(=O)NNC(=O)c1c(O)c2ccccc2n(CCC)c1=O	-14.3
CC1CCN(S(=O)(=O)c2ccc3ncn(CC(=O)N(C)C4CCCCC4)c(=O)c3c2)CC1	8.3
CCCCOc1ccc(C(=O)N/C(=C/C=C/c2ccccc2)C(=O)N2CCOCC2)cc1	12.0
COc1ccc(-c2ccc(SCC(=O)Nc3nccs3)nn2)cc1OC	-6.4
Cc1ccc(S(=O)(=O)N(C)C)cc1NC(=S)Nc1ccc2[nH]c(=O)[nH]c2c1	11.2
Cc1cc(Nc2ncc(Cl)cc2Cl)n(-c2ccccc2)n1	23.1
COc1ccc(/C=C(\C#N)c2cc(OC)c(OC)cc2[N+](=O)[O-])cc1	19.1
CCOc1ccc2nc(N3CCC(C(=O)N4CCN(c5ncccn5)CC4)CC3)sc2c1	14.1
CCC(C)(C(=O)NC1CCCC1)N(C(=O)Cc1cccs1)c1c(C)n(C)n(-c2ccccc2)c1=O (configuration not stated)	3.1
COc1ccccc1C(=O)NCC(=O)Nc1cccnc1	14.2
COc1ccc(CCN(CC(=O)NC(C)(C)C)C(=O)Cn2nnc(-c3ccc(C)o3)n2)cc1OC	9.6
CCN(CC)S(=O)(=O)c1ccc(/C=C/C(=O)OCC(=O)Nc2ccc(S(N)(=O)=O)cc2)cc1	-8.7
O=C1NCCC/C1=N\Nc1ccc(Br)cc1	32.1
COCc1ccc(CN2CCCC(CO)(Cc3cccc(Cl)c3)C2)o1 (configuration not stated)	5.2
COc1ccc(C(=O)OCC(=O)N2C(C)CCCC2C)cc1[N+](=O)[O-] (configuration not stated)	14.8
CCOC(=O)C1=C(O)/C(=C/c2cn(CC(=O)N3CCCC3)c3ccccc23)SC1=Nc1ccccc1	4.1
COc1cc(/C=C/C(=O)O)cc(S(=O)(=O)Nc2ccc(F)cc2)c1OC	12.9
O=C(c1ccc2c3c(cccc13)CC2)C1CCCN(Cc2cccnc2)C1 (configuration not stated)	6.1
CC(C)c1nc(SCC(=O)Nc2ccc3c(c2)OCCO3)n[nH]1	13.4
Cc1c(N(C(=O)c2cnccn2)C2(C(=O)NC3CCCC3)CCCCC2)c(=O)n(-c2ccccc2)n1C	12.9
COc1cccc(-c2csc(N3CCN(C(=O)NC45CC6CC(CC(C6)C4)C5)CC3)n2)c1	14.9
CCOC(=O)N/N=C(C)/C=C/c1ccco1	11.9
CCOc1cccc(/C=N/NC(=O)c2cc(-c3cccn3C)n[nH]2)c1O	8.6
Cn1c(CNC(=O)c2ccccc2)nnc1SCC(=O)Nc1nccs1	8.0
O=C(O)COc1ccccc1/C=N/NC(=O)CSc1nc2ccccc2s1	26.6
COc1cccc(/C=C/C(=O)OCC(=O)Nc2cc(C(F)(F)F)ccc2Cl)c1	8.4
Brc1ccc(-c2csc3[n+]2CCCCC3)cc1	0.2
O=C1CCC(CCC(=O)N2CCCC(C(=O)c3ccc(Cl)cc3)C2)=NN1 (configuration not stated)	14.7

By substructure, the compounds so far with a CF3 group
SMILES	Calb biofilm kill
Cc1ccc(S(=O)(=O)CCN2C=CC(C(F)(F)F)=NCC2)cc1	6.2
O=S(=O)(/C(=C/c1ccc(C(F)(F)F)cc1)c1nc2ccccc2[nH]1)c1ccccc1	7.1
O=C(O)CC/C(=N/Nc1ncc(C(F)(F)F)cc1Cl)C(=O)O	11.8
COc1cccc(/C=C/C(=O)OCC(=O)Nc2cc(C(F)(F)F)ccc2Cl)c1	8.4
